PABP FP inh = blocks human PABP binding to poly(A) RNA; fluorescence polarization; inhibition, % at 35 µM; 290,000 tested, 1% active;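 active = 50% or more with normal probe brightness, or confirmed in later tests; inconclusive = above 50% with abnormal brightness, or retests that disagree; inactive = below 50% or failed in later tests; about a fifth of its hits are not listed in these tables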;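 also: calls also rest on retests at 20 µM and on dose response follow-up; controls were probe without protein and protein plus probe with vehicle; some compounds called inactive have numbers as strong as hits; many hits fall short of the cut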
Target sequence (P11940 whole entry, looked up): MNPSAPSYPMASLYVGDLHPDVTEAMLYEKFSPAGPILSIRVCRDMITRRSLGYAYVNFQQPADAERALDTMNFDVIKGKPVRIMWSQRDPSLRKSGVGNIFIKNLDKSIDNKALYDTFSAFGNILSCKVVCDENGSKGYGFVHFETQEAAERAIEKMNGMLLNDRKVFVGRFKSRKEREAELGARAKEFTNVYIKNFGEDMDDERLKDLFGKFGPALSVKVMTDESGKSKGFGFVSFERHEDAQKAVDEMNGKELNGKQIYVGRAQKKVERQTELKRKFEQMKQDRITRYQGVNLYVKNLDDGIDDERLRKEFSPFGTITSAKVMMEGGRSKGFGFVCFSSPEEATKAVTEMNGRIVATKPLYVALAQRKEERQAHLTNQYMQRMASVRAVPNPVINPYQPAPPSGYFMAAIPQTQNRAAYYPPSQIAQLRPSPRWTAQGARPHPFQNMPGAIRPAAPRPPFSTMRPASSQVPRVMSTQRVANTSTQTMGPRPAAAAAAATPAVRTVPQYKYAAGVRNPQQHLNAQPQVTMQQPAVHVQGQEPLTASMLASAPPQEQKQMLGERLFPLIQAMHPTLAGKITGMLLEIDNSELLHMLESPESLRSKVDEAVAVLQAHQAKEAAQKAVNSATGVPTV
eIF4H inh = inhibitors of RNA binding by human eIF4H; Q15056; eIF4H fluorescence polarization binding assay; inhibition, % at 35 µM; 290,000 tested, 0.94% active; AID 2012;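 active = 50% or more with normal probe brightness, or confirmed in later tests; inconclusive = above 50% with abnormal brightness, or retests that disagree; inactive = below 50% or failed in later tests; about a fifth of its hits are not listed in these tables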;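 also: calls also rest on retests at 20 µM and on dose response follow-up; 0% = protein and probe with vehicle and 100% = probe without protein; strong numbers were not always called active; many hits fall short of the cut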
MT1-MMP act inh = inhibitors of human MT1-MMP activation; AID 651647; 360,000 tested, 0.061% active; HT1080 RFP-PRO-GFP cells, GFP/RFP ratio fluorescence, overnight; percent of plate control window, DMSO zero; GFP/RFP ratio change, % at 20 µM;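 active = GFP/RFP ratio change of at least 30% with cell ATP level not reduced by more than half and red fluorescence within 50% of control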; also: strong numbers were not always called active
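Material – HT1080 RFP-PRO-GFP cells · Control set – DMSO wells and RFP-L50D-GFP cells · Incubation – overnight cell settling, then overnight compound exposure, 37 °C, 5% CO2 · Compound dosing – single-point 20 µM compound, 1% DMSO · Read-out – GFP/RFP fluorescence ratio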
CSC inhib = blocks cancer stem cells. AID 2717. inhibition, % at 7.5 µM. 300,000 tested, 1.1% active. cancer stem cell-like cells viability, luminescence;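 active = mean at 75% or more and at least half the replicates too; inconclusive = mean and replicates disagree; tested in HMLE shEcad cells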;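 also: 0% = median of negative and 100% = median of positive control wells; the first replicate is given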
UUG fidelity = modulators of start codon recognition fidelity in yeast; AID 602363; activity score, % at 18.7 µM; 350,000 tested, 0.13% active; S. cerevisiae UUG-firefly luciferase reporter, luminescence/redox ratio;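 active = replicate mean at a twofold rise or more, about +100% in these data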;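 also: firefly luciferase made from a UUG start codon reports start codon fidelity; reporter light over untreated wells divided by growth signal over untreated wells; some hits fall short of that in this replicate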
HIV Env fusion = HIV envelope-mediated fusion inhibition | HeLa-JRFL Env/CEM21 cell fusion, luciferase | inhibition, % at 12.3 µM | 360,000 tested, 1.1% active;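 active = mean replicate inhibition score of at least 50 and every replicate individually at or above 50; inconclusive = only one of the two criteria met; inactive = mean below 50 and not all replicates reaching 50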;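 also: 0% = plate neutral controls and 100% = maraviroc near 300 nM; one replicate is shown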
Rce1 inh = yeast Ras-converting enzyme inhibition; Q03530; calls only; 290,000 tested, 0.27% active; yeast membranes, quenched prenylated peptide cleavage fluorescence;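 active = fall in fluorescence gain of 50% or more versus controls, with final raw signal at or below 3038400; inconclusive = same 50% fall but final raw signal above 3038400; inactive = fall in fluorescence gain under 50%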;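 also: plate controls were neutral control wells for no effect and wells lacking membranes for full effect; tested at 10 µM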
Target sequence (Q03530 whole entry, looked up): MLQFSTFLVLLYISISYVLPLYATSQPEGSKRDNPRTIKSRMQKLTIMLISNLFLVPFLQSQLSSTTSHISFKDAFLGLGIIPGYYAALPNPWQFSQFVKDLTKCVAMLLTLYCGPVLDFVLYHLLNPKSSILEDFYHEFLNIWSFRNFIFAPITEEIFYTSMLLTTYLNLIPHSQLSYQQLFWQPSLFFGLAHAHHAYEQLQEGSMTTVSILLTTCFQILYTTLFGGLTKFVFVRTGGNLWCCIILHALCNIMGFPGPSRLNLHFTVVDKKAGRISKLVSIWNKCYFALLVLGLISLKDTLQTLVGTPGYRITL
MT1-MMP act inh RFP = further read-out of MT1-MMP act inh, marked with its call; RFP signal change, %; measured here: RFP expression control read;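 0 = vehicle wells; hits needed this value within 50% of zero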
Active calls of the source: *; i = inactive; ? = inconclusive; nt = no result given; & = joins results of further samples. The list is partial; the hit share may differ from the screen's.

structure	PABP FP inh	eIF4H inh	MT1-MMP act inh	MT1-MMP act inh RFP	CSC inhib	UUG fidelity	HIV Env fusion	Rce1 inh
Cc1ccc(S(=O)(=O)NCC(=O)NCC(=O)OC(C(=O)NC(N)=O)C(C)C)cc1C (stereo not drawn)	6	4	1	3	-15	8	2	i
Cc1ccc(-c2nc(CS(=O)CC(=O)NCc3ccco3)c(C)o2)cc1 (stereo not drawn)	-1	-7	-3	0	-20	-11	1	i
Cc1cc(/C=N\NC(=O)CC(=O)NC2CCCCC2)c(C)n1-c1cccc(Cl)c1Cl	-8	-6	4	-6	-34	-6	13	i
O=C(Cc1ccc([N+](=O)[O-])cc1)Nc1cc(C(F)(F)F)cc(C(F)(F)F)c1	1	-18	-1	-7	13	1	9	i
COc1ccc(/C=N/c2sc3c(c2C#N)CCN(Cc2ccccc2)C3)c(O)c1	-6	29	nt	nt	-11	nt	nt	i
COc1ccc(C(=O)NCCCNC(=O)c2cnccn2)cc1Br	5	1	0	2	nt	-4	3	i
C1CCC(C23CC4CC(CC(C4)C2)C3)NC1 (stereo not drawn)	1	-8	1	2	-7	-18	-21	nt
Cc1cc(=O)n2c(c1C#N)SC1CCCCC12O (stereo not drawn)	0	-4	3	6	-15	0	15	i
Cc1ccc(C(=O)NC2CCCCNC2=O)cc1C (stereo not drawn)	0	2	nt	nt	1	nt	-5	i
Cc1ccnc(NC(=O)CNC(=O)c2ccccc2Br)c1	0	-11	-1	1	-14	-13	-21	i
COc1cc(-c2nnc(SCC#CCO)o2)cc(OC)c1OC	3	-7	8	2	-10	-3	-28	i
Cc1ccccc1N(CC(=O)N1CCCC1)S(=O)(=O)c1ccc(Cl)cc1	-2	-5	-4	1	-8	-9	-4	i
O=C(N/N=C1\CC2CC=CC12)c1ccc(COc2ccccc2)cc1 (stereo not drawn)	-1	2	0	5	-7	-8	-2	i
CN(C(=O)c1cccc(NC(=O)Cc2ccc([N+](=O)[O-])cc2)c1)C1CCCCC1	nt	nt	1	-16	-2	-12	-13	nt
Cc1cccc(NC(=O)c2cc3ccccc3oc2=O)c1	-9	-7	0	-2	-8	2	-58	i
COCCn1nnnc1C(c1ccc2ncccc2c1)N1CCN(c2ccccc2F)CC1 (stereo not drawn)	8	-2	-3	2	-18	9	-4	i
N#C/C(=C/N1CCOCC1)c1ccccc1	-3	6	0	4	15	-7	nt	i
CN(C)NC(=S)NC1CCS(=O)(=O)C1 (stereo not drawn)	-4	6	3	5	-3	-9	-2	i
Cc1cc(C)cc(C(=O)NCCCN2CCOCC2)c1	-3	-4	4	6	-16	-9	-4	i
Cc1ccc(C)c(Nc2nc3c(S(=O)(=O)c4ccccc4)nnn3c3ccccc23)c1	-4	10	-6	-4	7	nt	-21	i
Cc1ccc(C(C(=O)NC2CCCCC2)N(C(=O)c2csnn2)C2CC2)o1 (stereo not drawn)	3	-2	-1	-3	-5	-21	-59	i
CCCCn1nc(NS(=O)(=O)c2cccc3nonc23)c2cc3cccc(C)c3nc21	5	-1	0	-1	5	-6	13	i
CN(C)CCNC(=O)c1scc2c1CCCC2	10	5	2	7	-26	nt	8	i
COc1ccc(-c2noc(Cc3ccccc3OC)n2)cc1	-3	1	-1	-2	1	0	nt	i
O=C(O)c1cccc(COc2cccc3ccccc23)c1	nt	nt	-1	3	12	-42	-9	i
O=C(C1CCCO1)N1CCN(C(=S)NC2CC2)CC1 (stereo not drawn)	-13	6	-2	1	-9	nt	-13	i
COc1ccccc1-c1cc(C(=O)NCCCN2CCOCC2)no1	2	-18	4	-2	0	-4	14	i
CCOC(=O)c1c(C)cccc1OCC(N)=O	-2	-4	-3	-2	-5	-1	nt	i
Cc1cc(C)n(CCC(=O)N/N=C/c2cccc([N+](=O)[O-])c2)n1	-8	-7	1	3	-11	nt	3	i
Cn1c(CNC(=O)OC(C)(C)C)n[nH]c1=S	-8	-8	-1	0	-9	-9	9	i
Cc1nn(CC(=O)Nc2ccc(N3CCOCC3)cc2)c(C)c1Cl	6	-1	2	0	-13	-9	-4	i
O=C(CN1C(=O)c2ccccc2C1=O)OC(C(=O)c1ccc(Cl)cc1)c1ccccc1 (stereo not drawn)	-13	-1	-2	0	-3	-16	nt	i
COc1ccccc1S(=O)(=O)Cc1ccc(C(=O)NCC(OC)OC)o1	-4	-8	4	3	-6	-12	3	i
COc1ccc(CNC(=O)c2ccc(CS(=O)c3ccccc3)o2)cc1 (stereo not drawn)	-7	1	1	3	1	-11	-1	i
Cc1ccc(C(=O)NC(=S)NCC2CCCO2)cc1Br (stereo not drawn)	-2	3	0	1	8	nt	-2	i
CCCc1nc2scc(-c3ccc(C)cc3)c2c(=O)n1N	-5	-2	4	-6	-3	-21	-52	i
CCCCCC(=O)Nc1cccc(-c2nc3ncccc3o2)c1	-11	1	0	-4	-6	3	nt	i
CCOc1ccc(OCC)c(NC(=O)C2CCCN(c3ncccn3)C2)c1 (stereo not drawn)	-12	1	5	-1	-2	-23	32	i
COc1ccc2[nH]cc(CCN3C(=O)CCC3=O)c2c1	-12	-2	0	1	9	-5	nt	i
C[C@H](CO)N1C[C@H](C)[C@@H](CN(C)C(=O)Nc2ccc(C(F)(F)F)cc2)Oc2ccc(NC(=O)CCC(F)(F)F)cc2C1=O	nt	nt	-7	0	-1	18&16	12	nt
Cc1ccc(S(=O)(=O)CCC(=O)OCC(=O)NCc2ccc(F)cc2)cc1	nt	nt	0	4	nt	-10	16	nt
COCCC(=O)N1CCC(Oc2ccc(C(=O)NCCc3cn[nH]c3)cc2)CC1	-2	-4	-3	1	-17	-8	2	i
Cc1cc(Nc2ncc(Cl)cc2Cl)n[nH]1	2	1	1	0	-16	-19	-167	i
O=C(Nc1ccc(CN2CCOCC2)cc1)c1ccc(-c2ccc(Cl)cc2Cl)o1	-2	-9	18	-21	?	5	2	i
COc1cccc(C2CC(c3cccc(Br)c3)n3nc(N)nc3N2)c1 (stereo not drawn)	5	-16	2	-4	-4	-13	-35	i
Cc1cccc(C(=O)NCC(=O)N2CCN(c3ccccn3)CC2)c1	nt	nt	0	3	-5	-24	-1	nt
O=[N+]([O-])c1ccc(N2CCN(CCOCCO)CC2)c([N+](=O)[O-])c1	-2	7	5	4	-5	nt	6	i
CCC1=NC(c2ccccc2Cl)N(O)C1(C)C (stereo not drawn)	2	-7	2	2	-14	-16	nt	i
COc1ccc(NC(=S)N(CCO)Cc2cc3c(C)cc(C)cc3[nH]c2=O)cc1	-9	3	-2	4	-1	nt	9	i
COc1ccc(OCc2nnc(SCC(=O)Nc3ccccc3C#N)o2)cc1	-11	8	0	3	8	-14	-9	i

(next part)
structure	PABP FP inh	eIF4H inh	MT1-MMP act inh	MT1-MMP act inh RFP	CSC inhib	UUG fidelity	HIV Env fusion	Rce1 inh
CCOc1cc(CNCc2cc(OC)cc(OC)c2)ccc1OC	9	-11	11	-10	1	-2	40	i
CCOC(=O)C1(Cc2cccc(OC)c2)CCN(Cc2ccc(OC)c(O)c2)CC1	1	0	-3	-2	10	-6	15	i
COCc1c(C(=O)N/N=C\c2cccs2)nnn1-c1nonc1N	10	10	4	6	nt	-25	-8	i
CC1(NC(=O)CCc2nc3ccccc3c(=O)[nH]2)CCS(=O)(=O)C1 (stereo not drawn)	4	3	2	5	-12	-13	nt	i
CCc1nc2ccc(C(=O)NCCOc3ccc(OC)cc3)cn2c1N(C=O)Cc1ccc(OC)cc1	nt	nt	-1	-3	nt	-8	-25	nt
Cc1cccn2c(=O)c3cc(C(=O)N4CCN(Cc5ccccc5)CC4)sc3nc12	nt	nt	-2	6	-18	11	-2	nt
O=C1c2ccc(-c3ccc(F)cc3OCc3ccccc3)cc2S(=O)(=O)c2cccc(C(=O)N3CCN(c4ncc(Br)cn4)CC3)c21	nt	nt	-5	-1	nt	-9	32	nt
CCC(C)C(NS(=O)(=O)c1ccc(C)cc1)C(=O)NCCCN1CCOCC1 (stereo not drawn)	0	-7	0	5	-5	-21	-3	i
O=C(NC1CCCC1)C(c1ccccc1)N(Cc1ccc(F)cc1)C(=O)c1csnn1 (stereo not drawn)	4	2	-5	-5	-9	6	37	i
Cc1noc(C)c1COc1ccc(C(=O)OC(C)C(=O)Nc2ccc(S(=O)(=O)N3CCOCC3)cc2)cc1 (stereo not drawn)	11	-6	-1	-8	-6	nt	-1	i
CCNc1nc(=S)nc(NCc2ccccc2)[nH]1	-7	-11	nt	nt	-14	nt	-12	i
COc1ccc(CCC(=O)NCC(c2ccco2)N2CCc3ccccc32)cc1 (stereo not drawn)	nt	nt	-3	-4	7	-6	-16	i
Cc1cc(C)nc(NC(=O)c2c(-c3ccccc3Cl)noc2C)n1	-11	-10	-7	-3	-13	-17	20	i
Cc1ccc(NC(=O)c2ncn(CCCNCC(C)c3ccccc3)n2)cc1C (stereo not drawn)	nt	nt	2	2	nt	6	-18	nt
O=C1c2ccsc2SCCN1Cc1ccc(Cl)cc1Cl	-2	-6	2	-7	16	-1	nt	i
O=C(COC(=O)c1cc([N+](=O)[O-])ccc1NCc1ccccc1)NC1CCCc2ccccc21 (stereo not drawn)	10	-1	4	2	-14	-15	-50	i
CCC(Sc1nc2ncccc2[nH]1)C(=O)N1CCOCC1 (stereo not drawn)	-8	-4	1	4	-9	-12	-24	i
CC(O)CNc1cnccn1 (stereo not drawn)	71*	63*	-2	4	0	-13	0	i
O=C(CN1CCCC1)Nc1ccccc1Cl	0	-2	4	5	-14	-6	8	i
CN1CCN(C(=O)CNC(=O)Cc2ccc(Cl)cc2)CC1	-6	-3	-1	1	-8	-19	3	i
O=C(c1cccc(S(=O)(=O)N2CCCC2)c1)N1CCN(c2ncccn2)CC1	-6	-6	4	7	-11	-18	9	i
CN(C1CCCCC1)S(=O)(=O)c1ccc(C(=O)Nc2sc3c(c2C(N)=O)CC(C)(C)NC3(C)C)cc1	-10	-14	-3	0	-20	19	-12	i
Cc1cc(Cl)c(S(=O)(=O)N2CCN(c3ccccc3)CC2)cc1OCC(N)=O	-1	6	10	-11	7	-12	-47	i
NC(=O)c1ccc(-c2csnn2)cc1	2	-7	-14	-4	-2	-25	6	i
COc1cccc(NC2=Nc3cccc4cccc2c34)c1	4	0	-23	-3	3	-19	-17	i
CCN(CC)C(=O)c1sc2nc(-c3ccccn3)[nH]c(=O)c2c1C	nt	nt	8	0	14	-25	-7	i
COC(=O)c1ccccc1S(=O)(=O)N1CCC(C(=O)OC(C)C(=O)Nc2ccc(NC(C)=O)cc2)CC1 (stereo not drawn)	4	0	-1	5	-2	5	-242	i
COc1ccc(CNC(=O)c2ccc[nH]2)cc1Cl	-4	-6	0	5	3	-4	-2	i
O=C(CSc1nc(COc2ccccc2)nc2ccccc12)NC1CCCC1	-8	0	-3	3	7	nt	16	i
CCOC(=O)NNC(=S)Nc1c(C)n(C)n(-c2ccccc2)c1=O	11	1	-1	-1	-2	-10	2	i
CC1CCN(S(=O)(=O)c2ccc(C(=O)NCc3cccnc3)cc2)CC1	7	-3	3	-2	-5	nt	15	i

Assay outcomes: PubChem, several laboratories
